# From PubChem BioAssay
# DYRK1A inh: rat Dyrk1A kinase inhibitors, primary screen, biochemical, single point, plate reader; Dual specificity tyrosine-phosphorylation-regulated kinase 1A (Rattus norvegicus), Q63470; ADP-Glo luminescence, NFATc1 peptide; inhibition, % at 12.5 µM; 310,000 compounds, 0.43% hits; AID 504441, 2011; in the data active = inhibition above about 50%;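 note: plate controls were vehicle with enzyme for no effect and no enzyme for full effect; many of its hits are not listed in these tables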
# ANO1 block: TMEM16A chloride channel inhibitors, primary screen, cell-based, HTS; HEK293 TMEM16A/YFP iodide influx fluorescence, ionomycin; normalized B-score (activity score, 25-100; higher = stronger inhibition) at 10 µM; 310,000 compounds, 1.2% hits; AID 588511, 2011;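 active = ratio plate-corrected score three or more library SD toward inhibition, starting fluorescence score within five deviations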;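 note: score derived from kinetic fluorescence span divided by baseline fluorescence per well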
# HDAC3 inhib: HDAC3 deacetylase inhibitors, primary screen, biochemical, fluorescence, cell-free homogeneous | recombinant HDAC3, fluorogenic peptide/trypsin coupled | 320,000 compounds, 0.15% hits | Histone deacetylase 3 (Homo sapiens), O15379 | inhibition, % at 8.3 µM; in the data active = inhibition above about 26%, passing the limit was not always enough; inconclusive = no clear call, values can overlap the other calls
# KCNK3 block: human KCNK3 channel inhibitors, primary screen, CHO cells, FluxOR thallium flux, B-score | 340,000 compounds, 0.84% hits | FluxOR fluorescence; stronger effect = lower value | B-score at 10 µM | Potassium channel subfamily K member 3 (Homo sapiens), O14649;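 active = B-score under library mean minus 4 SD, starting fluorescence ratio at most library mean plus 5 SD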;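 note: more negative B-score means stronger inhibition of thallium flux through KCNK3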
# ANO1 activ: TMEM16A chloride channel activators or potentiators, primary screen, cell-based, HTS. B-score at 10 µM. 340,000 compounds, 0.3% hits. AID 623877, 2012. HEK293 TMEM16A/YFP-H148Q/I152L, iodide quench fluorescence; stronger effect = lower value;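 active = fluorescence-ratio B-score plate-corrected deviation score at least 3 library SD below zero, with starting fluorescence score within 5 deviations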;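 note: channel opened by trigger with iodide after compound preincubation; score built on the fluorescence ratio of max minus min over baseline; more negative score means more quench and so TMEM16A activation or potentiation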
# TRPC4 agonist: activators of mouse TRPC4 channel, primary screen, Fluo4 calcium, HEK293 TRPC4beta/mu-opioid cells. AID 2237, 2010. B-score at 10 µM. Fluo4 calcium fluorescence; stronger effect = higher value. 310,000 compounds, 0.49% hits. Short transient receptor potential channel 4 (Mus musculus), Q9QUQ5;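 active = B-score above 5 SD of library B-scores, and initial fluorescence ratio not above library mean plus 5 SD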;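 note: positive B-score marks a calcium rise read as TRPC4 activation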
# Target sequence (Q9QUQ5 whole entry, looked up): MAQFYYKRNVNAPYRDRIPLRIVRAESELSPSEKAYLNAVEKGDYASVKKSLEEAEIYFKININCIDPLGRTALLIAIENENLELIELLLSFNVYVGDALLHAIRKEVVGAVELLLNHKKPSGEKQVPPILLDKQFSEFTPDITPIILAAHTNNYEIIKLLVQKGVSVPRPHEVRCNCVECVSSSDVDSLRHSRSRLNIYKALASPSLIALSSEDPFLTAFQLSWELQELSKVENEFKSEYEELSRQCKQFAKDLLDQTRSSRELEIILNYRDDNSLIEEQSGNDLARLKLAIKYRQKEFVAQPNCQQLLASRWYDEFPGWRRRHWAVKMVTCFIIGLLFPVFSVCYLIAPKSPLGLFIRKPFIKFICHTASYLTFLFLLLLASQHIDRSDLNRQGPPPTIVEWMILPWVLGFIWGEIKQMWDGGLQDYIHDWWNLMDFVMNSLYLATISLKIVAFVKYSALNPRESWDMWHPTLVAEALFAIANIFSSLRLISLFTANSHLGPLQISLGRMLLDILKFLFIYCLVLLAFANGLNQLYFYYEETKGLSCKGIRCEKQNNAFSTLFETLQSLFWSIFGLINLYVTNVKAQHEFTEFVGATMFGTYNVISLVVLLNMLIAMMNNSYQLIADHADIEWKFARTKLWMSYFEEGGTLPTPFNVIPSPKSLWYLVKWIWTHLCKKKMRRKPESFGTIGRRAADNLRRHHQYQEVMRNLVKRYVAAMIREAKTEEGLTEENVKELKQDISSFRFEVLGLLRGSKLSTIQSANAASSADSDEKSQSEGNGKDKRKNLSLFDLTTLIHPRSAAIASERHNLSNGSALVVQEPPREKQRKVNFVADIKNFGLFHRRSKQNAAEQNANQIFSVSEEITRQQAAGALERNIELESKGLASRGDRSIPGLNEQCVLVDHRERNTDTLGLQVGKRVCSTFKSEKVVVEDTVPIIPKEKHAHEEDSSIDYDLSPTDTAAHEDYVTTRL
#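 Assay system: HEK293 stable line with TRPC4beta plus mu-opioid receptor; schedule: 45 min room-temperature Fluo4 loading, 110 s read; technique: kinetic Fluo4 calcium fluorescence; evaluation: integrated baseline-normalised fluorescence ratio, converted to per-well B score; controls: buffer (low) and maximal DAMGO (high)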
# TRPC4 potent: positive allosteric modulators of TRPC4, primary screen, cell-based, mouse TRPC4beta, HEK293 mu-opioid, Fluo-4 calcium; 310,000 compounds, 0.42% hits; B-score at 10 µM; Short transient receptor potential channel 4 (Mus musculus), Q9QUQ5; DAMGO EC20, Fluo-4 Ca2+ flux; stronger effect = higher value;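 active = B-score of calcium response area above 5 SD of library B-scores, with initial fluorescence ratio within 5 SD of library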;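 note: B-score of integrated fluorescence ratio over time as area under calcium response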
# KCNK9 inh: KCNK9 potassium channel inhibitors, primary screen, HEK293 cells, thallium flux; 310,000 compounds, 1.2% hits; FluxOR thallium flux fluorescence; stronger effect = lower value; B-score at 10 µM;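 active = ratio B-score over 3 SD below the library mean, with starting fluorescence within 5 SD of its mean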;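 note: negative B-score means less thallium flux so channel inhibition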
# * = called active by the depositor; i = inactive; ? = inconclusive; · = no result given; & = joins results of further samples; ! = not active in a repeat. Only part of the results is shown (hit frequency here may not be typical).
mol | DYRK1A inh | ANO1 block | HDAC3 inhib | KCNK3 block | ANO1 activ | TRPC4 agonist | TRPC4 potent | KCNK9 inh
CC(=O)Nc1cccc(Oc2cc(C#N)c(C#N)cc2N2CCCCCC2)c1 | -1 | i | -4 | i | i | i | i | i
COc1c(N2C[C@@H]3CCCN[C@@H]3C2)c(F)cc2c(=O)c(C(=O)O)cn(C3CC3)c12 | 6 | i | -57 | i | i | i | i | i
Cn1c(=O)c2c(SCC(=O)N3CCCC3)nc(CC(C)(C)C)nc2n(C)c1=O | 4 | i | -3 | i | i | i | i | i
CCOC(=O)c1cc(CC)sc1NC(=O)c1ccc2c(c1)OCCO2 | 3 | i | -12 | i | i | i | i | i
O=C(N/N=C/c1ccco1)c1[nH]ncc1Br | 23 | i | ? | i | i | i | i | i
S=c1nc(SCc2ccccc2)[nH]c2ccccc12 | 0 | i | -2 | i | i | i | i | i
CCCCC1CCC(C(=O)NCC(c2ccco2)N2CCOCC2)CC1 (stereo not drawn) | -4 | i | 2 | i | i | i | i | i
O=C(CCCC(=O)OCC(=O)c1ccc(F)cc1)Nc1cc(C(F)(F)F)ccc1Cl | -1 | i | 5 | i | i | i | i | i
CC(C)CN(CC(C)C)C(=O)CC(=O)NC(=O)c1ccc(Cl)cc1 | -3 | i | 5 | i | i | i | i | i
Cc1ccc(-c2nc3ccc(Cl)cc3c(=O)n2O)cc1 | 9 | i | 2 | i | i | i | i | i
O=C1CCCc2cc3c(cc21)CC1(C3)Cc2cc3c(cc2C1)C(=O)CCC3 | 4 | 25* | 9 | -11* | i | i | i | i
Cc1c(O)cccc1C(=O)N[C@@H](CSc1ccccc1)[C@H](O)CN1C[C@H]2CCCC[C@H]2C[C@H]1C(=O)NC(C)(C)C | -1&9 | 100*! | ? | i | i | i | i | i

# (continued)
mol | DYRK1A inh | ANO1 block | HDAC3 inhib | KCNK3 block | ANO1 activ | TRPC4 agonist | TRPC4 potent | KCNK9 inh
Cc1cccc(OCCC(=O)Nc2ccc(F)c(F)c2)c1 | 7 | i | 8 | i | i | i | i | i
Cc1ccc(NC(=O)CCC(=O)NNC(=S)Nc2ccc(F)cc2F)cc1C | -2 | i | 2 | i | i | i | i | i
Cc1ccc(Nc2nc(N)nc(CN3CCN(c4ccccc4F)CC3)n2)cc1 | -3 | i | 5 | i | i | i | i | i
CCc1cc(C(c2ccccc2OC)N2CCOCC2)c(NC(=O)c2ccccc2)s1 (stereo not drawn) | 9 | i | -5 | -9* | i | i | i | i
CCn1nc(NC(=O)CC(C)C)c2cc3cccc(C)c3nc21 | 1 | i | -5 | i | i | i | i | i
O=C(Nc1ccc(OC(F)(F)F)cc1)N1CCN(c2ccnc3cc(Cl)ccc23)CC1 | · | 100* | 17 | i | i | i | i | i
COc1ccc(C(=O)C(OC(=O)c2ccccc2Cl)c2ccccc2)cc1 (stereo not drawn) | 3 | i | -2 | i | i | i | i | -8.1*
CC(C)(CCl)C(=O)Nc1ccc(Sc2ccc(F)cc2)cc1 | 6 | i | 11 | -12* | i | i | i | i
COc1ccccc1C(=O)NNC(=O)C(=O)Nc1cccc(Cl)c1C | -5 | i | -2 | i | i | i | i | i
Cc1ccccc1C1CCCN(C(=O)c2cc(COc3c(F)cccc3F)on2)C1 (stereo not drawn) | -5 | i | 8 | i | i | i | i | i
CSCCC(NC(=O)COc1ccccc1)C(=O)N1CCN(c2ccccc2Cl)CC1 (stereo not drawn) | 1 | i | 3 | i | i | i | i | i
Cc1cc2c(NCCc3ccccc3)ncnc2s1 | 13 | 25* | -5 | i | i | i | i | i

# Molecules listed so far with a furan ring, fused or not:
mol | DYRK1A inh | ANO1 block | HDAC3 inhib | KCNK3 block | ANO1 activ | TRPC4 agonist | TRPC4 potent | KCNK9 inh
O=C(N/N=C/c1ccco1)c1[nH]ncc1Br | 23 | i | ? | i | i | i | i | i
CCCCC1CCC(C(=O)NCC(c2ccco2)N2CCOCC2)CC1 (stereo not drawn) | -4 | i | 2 | i | i | i | i | i

# Next results
# Assay codes – A = DYRK1A inh; B = ANO1 block; C = HDAC3 inhib; D = KCNK3 block; E = ANO1 activ; F = TRPC4 agonist; G = TRPC4 potent; H = KCNK9 inh
mol: Cn1nc(NC(=O)CC23CC4CC(CC(C4)C2)C3)c2c(F)cccc21
  A: · | B: i | C: 1 | D: i | E: i | F: i | G: i | H: i
mol: CC(=O)N(C1=C(Cl)C(=O)c2ccccc2C1=O)c1ccc(C(=O)O)cc1
  A: -4 | B: 100* | C: 15 | D: -11* | E: i | F: i | G: i | H: -6.7*
mol: COCCCn1c(=S)[nH]c2sc3c(c2c1=O)CCCC3
  A: 8 | B: i | C: 11 | D: i | E: i | F: i | G: i | H: i
mol: COc1cccc(/C=C/C(=O)Nc2ccccc2N2CCOCC2)c1
  A: · | B: i | C: 2 | D: i | E: i | F: i | G: i | H: i
mol: CCOc1ccc2[nH]c3c(N4CCc5ccccc5C4)ncnc3c2c1
  A: · | B: i | C: -3 | D: i | E: i | F: i | G: i | H: i
mol: COc1ccccc1NC(=O)C(=O)NNC(=O)c1ccco1
  A: 6 | B: i | C: ? | D: i | E: i | F: i | G: i | H: i
mol: Cc1ccccc1C(=O)NN1CC(C(=O)OCc2ccc(Cl)c(Cl)c2)CC1=O (stereo not drawn)
  A: 5 | B: i | C: 1 | D: i | E: i | F: i | G: i | H: i
mol: O=C(CC(c1ccccc1)c1ccccc1O)NCc1ccco1 (stereo not drawn)
  A: -4 | B: i | C: 10 | D: i | E: i | F: i | G: i | H: i
mol: CCCCCCCCCCCC(=O)N/N=C/c1ccco1
  A: -1 | B: i | C: -2 | D: i | E: i | F: i | G: i | H: i
mol: CCCCc1ccc(Nc2nc(CCC)cc(=O)[nH]2)cc1
  A: -8 | B: i | C: 1 | D: i | E: i | F: i | G: i | H: i
mol: Cc1csc(SCC(=O)Nc2cc(C(C)(C)C)nn2-c2ccccc2)n1
  A: -12 | B: i | C: 6 | D: i | E: i | F: i | G: i | H: -7.2*
mol: CCc1ccc(C(C)NC(=O)c2ccc(F)cc2)cc1 (stereo not drawn)
  A: -21 | B: i | C: 5 | D: i | E: i | F: i | G: i | H: i

# Record cards (already shown).
# `O=C(N/N=C/c1ccco1)c1[nH]ncc1Br` is entered as DYRK1A inh = 23; ANO1 block = i; HDAC3 inhib = ?; KCNK3 block = i; ANO1 activ = i; TRPC4 agonist = i; TRPC4 potent = i; KCNK9 inh = i
# `COCCCn1c(=S)[nH]c2sc3c(c2c1=O)CCCC3` is entered as DYRK1A inh = 8; ANO1 block = i; HDAC3 inhib = 11; KCNK3 block = i; ANO1 activ = i; TRPC4 agonist = i; TRPC4 potent = i; KCNK9 inh = i
# `Cc1csc(SCC(=O)Nc2cc(C(C)(C)C)nn2-c2ccccc2)n1` is entered as DYRK1A inh = -12; ANO1 block = i; HDAC3 inhib = 6; KCNK3 block = i; ANO1 activ = i; TRPC4 agonist = i; TRPC4 potent = i; KCNK9 inh = -7.2*

# Arranged by SMILES length (rising): part of the list above.
# Assay codes – A = DYRK1A inh; B = ANO1 block; C = HDAC3 inhib; D = KCNK3 block; E = ANO1 activ; F = TRPC4 agonist; G = TRPC4 potent; H = KCNK9 inh
mol: CC(C)(CCl)C(=O)Nc1ccc(Sc2ccc(F)cc2)cc1
  A: 6 | B: i | C: 11 | D: -12* | E: i | F: i | G: i | H: i
mol: CC(C)CN(CC(C)C)C(=O)CC(=O)NC(=O)c1ccc(Cl)cc1
  A: -3 | B: i | C: 5 | D: i | E: i | F: i | G: i | H: i
mol: O=C(CCCC(=O)OCC(=O)c1ccc(F)cc1)Nc1cc(C(F)(F)F)ccc1Cl
  A: -1 | B: i | C: 5 | D: i | E: i | F: i | G: i | H: i
